BJeLR lethal: MLPCN primary cell-based screen for lethality selective to Ras in HRASV12 cells; actives 0.17% (n = 300,000); inhibition, % (test concentration not listed); BJeLR (HRASV12) viability, CellTiter-Glo ATP luminescence, 48 h; reference of the scale not given here;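 active means replicate mean above 50%; inconclusive means above 50% but judged a plate artefact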;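 further: 50 nL library stock added to about 25 µL; numbers are from one replicate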
Sa ugtP lethal: growth inhibition of ugtP-null S. aureus, primary screen, RN4220 ugtP deletion, OD600; 16 h; some inactives read as strong as hits; growth inhibition, % (no concentration beside the values); actives 0.54% (n = 330,000); AID 1259309, 2017;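 active means z-score under -3 and OD600 up to 0.15 on both plates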;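 further: plate controls were untreated wells for no effect and antibiotic for full effect; wells of about 80 µL received 100 nL stock; the first replicate is given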
Mtb hypoxia inh: PubChem AID 1159583; M. tuberculosis hypoxia-regulated fluorescent reporter, fluorescence; fluorescence inhibition, % (concentration not given with the values); actives 0.1% (n = 300,000);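 active means 35 to 45% if threefold the growth effect, above 45% if 1.5-fold the growth effect; inactive means the rest, general growth blockers included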;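 further: wells of about 50 µL received 100 nL stock; 0% = vehicle wells and 100% = reference inhibitor wells; whole bacteria with a GFP reporter of the hypoxia response; strong numbers were not always called active; many hits fall short of the cut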
PrP 5UTR inh: inhibition of PrP 5' UTR reporter expression; cell-based PrP 5' UTR mRNA reporter, plate reader; inhibition, % (no concentration beside the values); actives 0.35% (n = 340,000);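 active means every replicate at 50% or more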;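 further: 0 = median of the neutral control wells; tested in H4 reporter cells; numbers are from one replicate; inactives centre near -14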
Bead autofluor: flagged as autofluorescent in microsphere protease counterscreen; AID 624483; compound autofluorescence counterscreen, microsphere flow cytometry; hits give high values; actives 3.1% (n = 360,000); fluorescence intensity (no concentration beside the values);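 active means at least 3 SD above the mean of all compounds, about 16000 in these data; inconclusive means too few beads counted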;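 further: 100 nL of 1 mM stock went into each well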
Sa RN4220 lethal: growth inhibition of S. aureus RN4220, primary screen, OD600; 16 h; inhibition, % (no concentration beside the values); actives 0.33% (n = 330,000);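 active means z-score of -3 or lower and OD600 up to 0.18 on both plates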;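 further: plate controls were untreated cells for no effect and reference antibiotic for full effect; stock transfer was 100 nL into about 80 µL; one replicate is shown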
Mtb hypoxia inh growth: recorded beside Mtb hypoxia inh, whose call it bears; growth inhibition, %; measured here: M. tuberculosis growth (absorbance);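 0% = vehicle and 100% = reference antibiotic; read after six days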
* marks the source's active call; other numbers are inactive results; ? = inconclusive; / = no result given.

[1] CCCn1nnnc1NCc1ccc(CC)cc1
[2] Oc1cccc(/C=N/NC(=S)NCCN2CCOCC2)c1O
[3] CC[C@]1(C(=O)OC)[C@H]2C(=O)N(C)C(=O)[C@H]2[C@H]2CN=C(SCc3ccc(C)cc3)N21
[4] COc1cc(CNn2nnnc2N)cc(Br)c1OCc1c(Cl)cccc1Cl
[5] Cc1ccsc1C(=O)OCC(=O)c1cc(C)n(CC2CCCO2)c1C (configuration not stated)
[6] Cc1ccc(Sc2ncnc3onc(C)c23)c(C)c1
[7] CC1(NC(=O)Cc2ccc(S(=O)(=O)N3CCOCC3)s2)CCS(=O)(=O)C1 (configuration not stated)
[8] O=C(CN1C(=O)S/C(=C/c2cccn2-c2ccc(O)cc2)C1=O)N1CCCC1

Screen / compound no. | 1 | 2 | 3 | 4 | 5 | 6 | 7 | 8
BJeLR lethal | -0.3 | -7.4 | / | 1.2 | 5.4 | / | 7.1 | 3.2
Mtb hypoxia inh growth | 14.4 | / | 5.7 | 3.4 | -1.6 | 13.3 | / | 6.6
Bead autofluor | 3903 | 4308 | 3572 | 23392* | 4670 | 4116 | ? | 6852
PrP 5UTR inh | -13.0 | -18.3 | -36.0 | 15.3 | 78.7* | -1.0 | 12.1 | 6.1
Mtb hypoxia inh | 13.6 | / | 2.1 | -2.1 | 7.5 | 5.8 | / | -1.8
Sa ugtP lethal | 3.9 | / | -1.3 | 4.9 | 0.6 | -2.7 | / | 3.8
Sa RN4220 lethal | 1.7 | / | 3.1 | 9.6 | 2.8 | 8.6 | / | 1.9

[9] CCC(CC)C(=O)Nc1cccc(C(=O)Nc2ccc(OC)cc2[N+](=O)[O-])c1
[10] CC1=C(C(N)=O)C(c2ccc(Cl)cc2Cl)n2ncnc2N1 (configuration not stated)
[11] O=C1CS/C(=N/N=Cc2ccncc2)N1
[12] CC(C)(Cc1ccc(O)cc1)NC(=O)c1ccccc1
[13] CCn1c(SCC(=O)Nc2cc(C)on2)nnc1-c1ccc(OC)cc1
[14] Cc1cc(C)n(-c2ncc3c(n2)N(C)CCOC3=O)n1
[15] CC1CCCN(S(=O)(=O)CCNC(=O)c2ccccc2)C1 (configuration not stated)
[16] CCc1nnc(NC(=O)c2ccc(S(=O)(=O)N3CCCCC3)cc2)s1

Screen / compound no. | 9 | 10 | 11 | 12 | 13 | 14 | 15 | 16
BJeLR lethal | -4.3 | -3.0 | / | 1.4 | -0.6 | 12.4 | -0.4 | -12.2
Mtb hypoxia inh growth | 3.1 | 2.3 | -9.9 | 8.0 | -7.9 | 3.0 | 8.3 | 3.9
Bead autofluor | 11068 | 21777* | / | / | 2033 | 5448 | ? | 2737
PrP 5UTR inh | -16.8 | -20.2 | / | 7.6 | -15.0 | -25.3 | -7.5 | -17.9
Mtb hypoxia inh | 4.0 | -2.6 | -3.3 | 20.6 | 2.8 | 15.3 | 7.9 | 10.7
Sa ugtP lethal | 5.4 | -1.0 | 3.9 | 14.3 | 7.0 | 9.9 | -3.2 | 16.1
Sa RN4220 lethal | 3.6 | -0.8 | 2.1 | 8.5 | 3.5 | 2.7 | 3.4 | 5.7

[17] Clc1c2c(nc3ccccc13)CCC2
[18] CCNC(=O)n1nccc1C(C)Oc1cccc(C(F)(F)F)c1 (configuration not stated)
[19] Cc1nc2c(C(=O)N3CCCC3)cnn2c(C)c1Cc1c(F)cccc1Cl
[20] CNC(=S)/N=C(/Nc1ccccc1)c1ccccc1
[21] CCOCCCNC(=O)c1cc2cc3cc(OC)ccc3nc2o1
[22] Cc1csc(NC(=O)C(NC(=O)c2ccccc2F)C(C)C)n1 (configuration not stated)
[23] Cc1nnc(C)c2c(C)n(N)c(C)c12
[24] CC(C)(C)CN1CCN(CCCc2ccccc2)C(CCO)C1 (configuration not stated)

Screen / compound no. | 17 | 18 | 19 | 20 | 21 | 22 | 23 | 24
BJeLR lethal | 4.4 | 8.9 | -0.3 | -0.3 | -7.7 | -6.1 | -2.0 | -2.2
Mtb hypoxia inh growth | -1.1 | 7.6 | 6.8 | / | 0.4 | 1.0 | -6.0 | 6.1
Bead autofluor | 3747 | 21560* | 23177* | 4373 | 3995 | 2319 | 6191 | 3670
PrP 5UTR inh | -33.2 | 9.5 | 8.6 | -29.0 | -8.4 | -12.3 | / | -7.5
Mtb hypoxia inh | 5.5 | 5.6 | 8.7 | / | 6.1 | 9.7 | 2.7 | -1.8
Sa ugtP lethal | -0.1 | 1.4 | 1.5 | / | 9.0 | -1.5 | 10.4 | -5.1
Sa RN4220 lethal | 0.0 | 1.7 | 1.2 | / | -2.8 | 1.6 | 1.2 | -7.9

[25] COC(=O)C1CCN(C2CC(=O)N(c3cc(C)cc(C)c3)C2=O)CC1 (configuration not stated)
[26] CC(=O)N[C@@H](Cc1ccc(O)cc1)CN1C(N)=NC[C@@H]1CC(C)C
[27] N#CC1=CN(Cc2ccccc2)C=C(C=NNc2ccccc2)C1
[28] O=C(Nc1ccc(Oc2ccccc2)cc1)C1CCCN(c2ncccn2)C1 (configuration not stated)
[29] CCOc1ccc(CCNC(=O)c2cc(S(=O)(=O)N3CCOCC3)ccc2C)cc1OCC
[30] O=C(c1ccc(Cl)c(S(=O)(=O)N2CCCCC2)c1)N1CCCCC1
[31] CCN(CC)CCN(C(=O)c1ccc2ccccc2c1)c1nc2ccc(F)cc2s1
[32] Cc1cc([N+](=O)[O-])nn1CC(=O)N/N=C/c1ccccc1Br

Screen / compound no. | 25 | 26 | 27 | 28 | 29 | 30 | 31 | 32
BJeLR lethal | -8.2 | 2.5 | / | 9.2 | -3.5 | 7.5 | -4.6 | -20.5
Mtb hypoxia inh growth | -6.9 | / | 0.5 | -3.9 | 3.4 | 1.5 | 6.6 | /
Bead autofluor | 1979 | 3586 | / | 21093* | 10377 | 5554 | 4548 | 4705
PrP 5UTR inh | -14.0 | 0.4 | / | -1.9 | -7.4 | -38.8 | -19.9 | -54.4
Mtb hypoxia inh | -2.8 | / | 2.5 | -11.4 | 6.8 | 8.1 | -6.2 | /
Sa ugtP lethal | 8.5 | / | -4.2 | -5.8 | 0.8 | 8.7 | -7.6 | /
Sa RN4220 lethal | 4.2 | / | 4.5 | -0.4 | 2.5 | 4.2 | -4.3 | /

Rewritten with two lines to a compound: part of the list above
Each structure is followed by: BJeLR lethal, Mtb hypoxia inh growth, Bead autofluor, PrP 5UTR inh, Mtb hypoxia inh, Sa ugtP lethal, Sa RN4220 lethal
20) CNC(=S)/N=C(/Nc1ccccc1)c1ccccc1
    -0.3, /, 4373, -29.0, /, /, /
21) CCOCCCNC(=O)c1cc2cc3cc(OC)ccc3nc2o1
    -7.7, 0.4, 3995, -8.4, 6.1, 9.0, -2.8
22) Cc1csc(NC(=O)C(NC(=O)c2ccccc2F)C(C)C)n1 (configuration not stated)
    -6.1, 1.0, 2319, -12.3, 9.7, -1.5, 1.6
23) Cc1nnc(C)c2c(C)n(N)c(C)c12
    -2.0, -6.0, 6191, /, 2.7, 10.4, 1.2
24) CC(C)(C)CN1CCN(CCCc2ccccc2)C(CCO)C1 (configuration not stated)
    -2.2, 6.1, 3670, -7.5, -1.8, -5.1, -7.9
25) COC(=O)C1CCN(C2CC(=O)N(c3cc(C)cc(C)c3)C2=O)CC1 (configuration not stated)
    -8.2, -6.9, 1979, -14.0, -2.8, 8.5, 4.2
26) CC(=O)N[C@@H](Cc1ccc(O)cc1)CN1C(N)=NC[C@@H]1CC(C)C
    2.5, /, 3586, 0.4, /, /, /
27) N#CC1=CN(Cc2ccccc2)C=C(C=NNc2ccccc2)C1
    /, 0.5, /, /, 2.5, -4.2, 4.5
28) O=C(Nc1ccc(Oc2ccccc2)cc1)C1CCCN(c2ncccn2)C1 (configuration not stated)
    9.2, -3.9, 21093*, -1.9, -11.4, -5.8, -0.4
29) CCOc1ccc(CCNC(=O)c2cc(S(=O)(=O)N3CCOCC3)ccc2C)cc1OCC
    -3.5, 3.4, 10377, -7.4, 6.8, 0.8, 2.5
30) O=C(c1ccc(Cl)c(S(=O)(=O)N2CCCCC2)c1)N1CCCCC1
    7.5, 1.5, 5554, -38.8, 8.1, 8.7, 4.2
31) CCN(CC)CCN(C(=O)c1ccc2ccccc2c1)c1nc2ccc(F)cc2s1
    -4.6, 6.6, 4548, -19.9, -6.2, -7.6, -4.3
32) Cc1cc([N+](=O)[O-])nn1CC(=O)N/N=C/c1ccccc1Br
    -20.5, /, 4705, -54.4, /, /, /

Following part:
[33] Cc1cc(Br)ccc1NC(=O)CNC(=O)c1ccc(-n2cncn2)c([N+](=O)[O-])c1
[34] COc1ccccc1CNC(=O)C1CCC(CNS(=O)(=O)c2ccc(C)cc2)CC1 (configuration not stated)
[35] CCCN(CC(=O)Nc1ccc(F)c(F)c1F)C(=O)c1ccc2c(=O)n3c(nc2c1)CCC3
[36] CC(=O)N1CCN(S(=O)(=O)c2cccc(C(=O)N(Cc3ccccc3)c3cccc(C)c3)c2)CC1

Screen / compound no. | 33 | 34 | 35 | 36
BJeLR lethal | 6.3 | 8.0 | -9.4 | 5.8
Mtb hypoxia inh growth | 3.9 | -2.5 | -6.9 | 4.4
Bead autofluor | 5076 | 3884 | 4673 | 7052
PrP 5UTR inh | -42.3 | / | -12.3 | -22.0
Mtb hypoxia inh | 2.0 | -6.0 | -4.5 | -2.8
Sa ugtP lethal | 6.6 | 0.0 | 10.8 | -0.2
Sa RN4220 lethal | -3.5 | 3.2 | 5.0 | -0.9

Screening data as filed in PubChem BioAssay.
